NPYLR7 agonist – activates Aedes aegypti NPYLR7 receptor | HEK293T NPYLR7/Galpha15, GCaMP6s calcium fluorescence | activation, % at 10 µM | 270,000 compounds, 0.15% hits | AID 1259423; in the data active = activation above about 40%;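 also: 0% = vehicle and 100% = reference agonist at the receptor; some compounds past the cut are filed as inactive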
NPYLR7 agonist max-min – second read-out of NPYLR7 agonist, no call of its own (marks repeat the call); activation, %; measured here: Max-Min RFU normalised activation; some inactives read as strong as hits;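 span of the calcium signal over five minutes; 0% = vehicle and 100% = native peptide agonist; compound fluorescence can raise it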
* = called active by the depositor; & = joins results of further samples. Only part of the results is shown; rates above refer to the full screens.

SMILES | NPYLR7 agonist | NPYLR7 agonist max-min
N#CC1C(=N)Oc2cc3c(cc2C1c1cccc(Br)c1)OCO3 (stereo not given) | 7 | 2
CCCCN(C)c1c(C)nc2ccc(C(=O)N3CCN(C(=O)c4ccco4)CC3)cn12 | -5 | -9
CCCCS(=O)(=O)N1CCC(c2nn(C)c(=O)n2-c2ccccc2)CC1 | 7 | 2
CN1C(=O)/C(=C2\SC(=S)N(c3ccc(O)cc3)C2=O)c2ccccc21 | 1 | -1
Clc1cc(CSc2ncnc3sccc23)cc2c1OCCO2 | -1 | -3
Cc1ccc(-n2nc3c(c2N)CSC3)cc1C | -5 | -12
Cc1oc2c(c1C(=O)N1CCN3C(=O)CNC(=O)C3C1)C(=O)CCC2 (stereo not given) | 5 | 1
Cc1cn2c3c(=O)n(CCN4CCCCC4)c(=O)n(C)c3nc2n1CCc1ccccc1 | 1 | -1
O=C(NC1CCCCNC1=O)c1ccc(Cc2ccccc2)o1 (stereo not given) | -7 | -13
Cc1cc(C)c(NC(=O)Cn2c(-n3nc(C)cc3C)nc(-c3ccccc3)cc2=O)c(C)c1 | 3 | 11
COc1ccc(CCOc2nc(-c3cccc(OC)c3)n(-c3ccc(NC(=O)c4ccc(C(F)(F)F)cc4)cc3)n2)cc1 | 6 | 11
CCOc1ccccc1CNC(=O)CCc1cc2c(n1-c1ccc3c(c1)OCO3)-c1ccccc1CC2 | 21 | 9
CC1CCCN(S(=O)(=O)c2ccc(C#N)cc2)C1 (stereo not given) | 3 | -2
Cc1ccc(NC(=O)CSc2nncc(=O)[nH]2)cc1C | -3 | -4
CCNC(=O)N(C)c1c(CC)nc2c(OCCOc3ccccc3)cccn12 | 5 | 4
COCCCN(CC(=O)Nc1cc(C(C)(C)C)nn1-c1ccc(C)cc1C)C(=O)Nc1ccc(OC)cc1OC | -2 | -1
Oc1ccccc1CN1CCCC(Nc2cccc(F)c2)C1 (stereo not given) | 5 | 1
O=C(C1CCN(Cc2ccco2)CC1)N1Cc2cnn(CCO)c2C1 | 0 | -9
COc1ccc(CNCc2cc(C)cc3c(C)c(C)[nH]c23)cc1OC | 10 | 9
Cc1ccc([N+](=O)[O-])cc1NC(=O)C(=O)Nc1ccc(Oc2ccccc2)cc1 | -5 | 0
O=C1C(Sc2ncnc3nc[nH]c23)CCN1c1ccccc1 (stereo not given) | -8 | 902
CCc1cccc(NC(=O)Cn2nc(-c3cccs3)c3sc(N4CCOCC4)nc3c2=O)c1 | -3 | -7
CCc1ccc(CN2CCC(c3n[nH]c(=O)n3CC)CC2)nc1 | 1 | 0
CCOc1ccc(C2C(=C(O)c3ccc(F)cc3)C(=O)C(=O)N2CCN2CCOCC2)cc1 (stereo not given) | 3 | -3
COc1ccc(N(C)S(=O)(=O)c2cnc[nH]2)cc1 | 9 | 13
CCN(Cc1nc2ccccc2c(=O)[nH]1)C(=O)CN1C(=O)NC2(CCC(C(C)(C)C)CC2)C1=O (stereo not given) | -1 | -2
CCC1(CC)CN(C(=O)CC2C(=O)NCCN2Cc2cccnc2)CCO1 (stereo not given) | 20 | 17
O=C(CN1CN(c2ccccc2)C2(CCN(C(=O)c3ccc([N+](=O)[O-])cc3Cl)CC2)C1=O)NC1CCCCC1 | 29 | 28
Cn1ncc2c(N(CCO)Cc3ccccc3)ncnc21 | 2 | -1
CC1CN(C(=O)C2CC3CCC2C3)C(C)CN1C(=O)C1CC2CCC1C2 (stereo not given) | 0 | 6
O=C1CCC(C(=O)N2CCC(OCc3ccccc3)CC2)CN1Cc1ccccn1 (stereo not given) | 6&1 | 4&1
COc1ccccc1-c1cc(C(=O)N2CCC3(CC2)OCCO3)nc2c(-c3ccccc3)c(C)nn12 | 0 | 7
CCC(=O)O[C@H]1[C@H](O[C@@H]2[C@@H](C)[C@H](O[C@H]3C[C@@](C)(OC)[C@@H](O)[C@H](C)O3)[C@@H](C)C(=O)O[C@H](CC)[C@@](C)(O)[C@H](O)[C@@H](C)C(=O)[C@H](C)C[C@@]2(C)O)O[C@H](C)C[C@@H]1N(C)C | -11&-7 | -16&-11
CC(C)c1ccc(Nc2cc3c(cn2)nc(-c2ccccc2)n3C)cc1 | 1 | 1
CCCCc1ccc(NC(=O)N2CCC[C@H]2C(=O)N2CCC(C(=O)NCc3cccc(OC)c3)CC2)c(C)c1 | -8 | -1
Cn1c(=O)c2c(SC3CCCC3)nc(-c3ccccc3F)nc2n(C)c1=O | -3 | -10

An excerpt of these results, with values under each structure.
Every second line gives: NPYLR7 agonist | NPYLR7 agonist max-min
Cc1oc2c(c1C(=O)N1CCN3C(=O)CNC(=O)C3C1)C(=O)CCC2 (stereo not given)
  5 | 1
Cc1cn2c3c(=O)n(CCN4CCCCC4)c(=O)n(C)c3nc2n1CCc1ccccc1
  1 | -1
O=C(NC1CCCCNC1=O)c1ccc(Cc2ccccc2)o1 (stereo not given)
  -7 | -13
Cc1cc(C)c(NC(=O)Cn2c(-n3nc(C)cc3C)nc(-c3ccccc3)cc2=O)c(C)c1
  3 | 11
COc1ccc(CCOc2nc(-c3cccc(OC)c3)n(-c3ccc(NC(=O)c4ccc(C(F)(F)F)cc4)cc3)n2)cc1
  6 | 11
CCOc1ccccc1CNC(=O)CCc1cc2c(n1-c1ccc3c(c1)OCO3)-c1ccccc1CC2
  21 | 9
CC1CCCN(S(=O)(=O)c2ccc(C#N)cc2)C1 (stereo not given)
  3 | -2
Cc1ccc(NC(=O)CSc2nncc(=O)[nH]2)cc1C
  -3 | -4
CCNC(=O)N(C)c1c(CC)nc2c(OCCOc3ccccc3)cccn12
  5 | 4
COCCCN(CC(=O)Nc1cc(C(C)(C)C)nn1-c1ccc(C)cc1C)C(=O)Nc1ccc(OC)cc1OC
  -2 | -1
Oc1ccccc1CN1CCCC(Nc2cccc(F)c2)C1 (stereo not given)
  5 | 1
O=C(C1CCN(Cc2ccco2)CC1)N1Cc2cnn(CCO)c2C1
  0 | -9
COc1ccc(CNCc2cc(C)cc3c(C)c(C)[nH]c23)cc1OC
  10 | 9
Cc1ccc([N+](=O)[O-])cc1NC(=O)C(=O)Nc1ccc(Oc2ccccc2)cc1
  -5 | 0
O=C1C(Sc2ncnc3nc[nH]c23)CCN1c1ccccc1 (stereo not given)
  -8 | 902
CCc1cccc(NC(=O)Cn2nc(-c3cccs3)c3sc(N4CCOCC4)nc3c2=O)c1
  -3 | -7
CCc1ccc(CN2CCC(c3n[nH]c(=O)n3CC)CC2)nc1
  1 | 0
CCOc1ccc(C2C(=C(O)c3ccc(F)cc3)C(=O)C(=O)N2CCN2CCOCC2)cc1 (stereo not given)
  3 | -3
COc1ccc(N(C)S(=O)(=O)c2cnc[nH]2)cc1
  9 | 13

(listing goes on)
SMILES | NPYLR7 agonist | NPYLR7 agonist max-min
CCc1ccc(-c2cn3c(C(=O)N4[C@@H]5CC[C@H]4CNC(=O)C5)csc3n2)cc1 | 2 | 2
CC(NS(=O)(=O)c1cccs1)C(=O)NC1CCN(Cc2ccccc2)CC1 (stereo not given) | 11 | 4
Cc1cc2c(cc1O)NC(=O)CC2c1cc(=O)n2c3c(cccc13)CCC2 (stereo not given) | 4 | 4
CCN(CCN1CCOCC1)Cc1cc2cc(C)ccc2[nH]c1=O | -1 | -7
Cc1c(Cl)cccc1Nc1nn(CN2CCOCC2)c(=S)s1 | 8 | 3
N#Cc1ccc(C(=O)N2CCN(Cc3cccs3)CC2)cc1 | 2 | -1
O=C(Nc1ccnn1C1CCN(C(=O)c2csc3c2CCCC3)CC1)C1CC1 | 10 | -6
CC(C)c1ccc2cc(C(=O)N3CCOCC3)[nH]c2c1 | 3 | 2
O=C(c1cccc(Nc2c(Oc3ccccc3)cnn(Cc3ccccc3)c2=O)c1)N1CCCCC1 | 10 | 15
COCCc1ccc(Oc2ncnc3cc(Cl)ccc23)cc1 | 5 | 1
CCN(Cc1nc(C)no1)C(=O)c1ccc(CSC)o1 | 7 | 7
Cc1cc(C(=O)N[C@H](c2nnc3c(C(F)(F)F)cccn23)C(C)C)ccc1Br | -12 | -17
CSc1nn(CC(=O)Nc2ccccc2Br)c(N)c1S(=O)(=O)c1ccccc1 | -3 | -9
CCOc1ccccc1N=c1c([N+](=O)[O-])nn(-c2ccc(OC)cc2)n1O | -2 | -11
O=C(Cc1cccs1)N1CCN(c2ccc(-c3ccco3)nn2)CC1 | 0 | 18
COc1ccc(C=Nc2nn[nH]n2)cc1 | 7 | 5
COc1cc(OC)cc(C(=O)N2CCC3(CC2)NC(=O)c2cc(Cl)ccc2N3)c1 | 3 | 18
COc1ccc(N=Nc2c(O)[nH]c(=O)[nH]c2=O)cc1 | -3 | -11
CCn1c(C2CCCN(Cc3cn(C)nc3-c3ccccc3)C2)n[nH]c1=O (stereo not given) | 6 | 2
Cc1ccn2c(C(=O)NNC(=O)Nc3ccc(Cl)c(Cl)c3)c(C)nc2c1 | 2 | 1
Cc1c(-c2ccccc2)n[nH]c1C(=O)N1CCC(c2ccccc2C(=O)O)C1 (stereo not given) | -3 | -10
CCn1ncc(NC(=O)Cn2ncc3cc(-c4ccccc4C)ccc32)n1 | 9 | 6
CC(C)(C)c1ccc(-c2nc3ccc(Cl)cn3c2NCc2ccccc2)cc1 | -4 | 4
C=CCNC(=S)NNC(=O)CNC(=O)c1ccc(Cl)cc1Cl | 6 | 5
CC(C)C(=O)N1CCC1(C)C(=O)Nc1ccc2c(c1)CCC2=O (stereo not given) | 5 | 2
CN1C(=CC(=S)N=P(N2CCOCC2)(N2CCOCC2)C(C)(C)C)C(C)(C)c2ccccc21 | -2 | -5
Cn1ccn2ncc(C(=O)NCc3ccc(N4CCCC4=O)cc3)c12 | 1 | 0
CCC12CC3CC(O)(C1)CC(C(=O)NCc1cncn1CC(C)C)(C3)C2 (stereo not given) | -1 | 16
CCCc1nc(NCC)nc2n[nH]c(=S)n12 | -1 | -2
COc1ccc(N2CCN(C(=O)c3cc(-c4cccn4C)nn3-c3ccc(C)cc3C)CC2)cc1 | -4 | -3
CCC1(c2ccccc2)CNC(=O)C(=O)N1 (stereo not given) | -9 | -10
C=CCNC(=S)NNC(=O)COc1ccc(Cl)cc1 | -3 | -10
Cc1ccc(CCNC(=O)c2ccc(S(N)(=O)=O)cc2)s1 | 24 | 17
Cc1csc(=O)n1CCC(=O)OCC(=O)c1c(N)n(C)c(=O)n(C)c1=O | -5 | -6
Cc1c(CN(C)S(=O)(=O)c2ccc([N+](=O)[O-])cc2)cnn1C | 2 | 8
C=CCOC(=O)C1C(C)=Nc2nc(SCC=C)[nH]c(=O)c2C1c1ccc(Cl)cc1 (stereo not given) | -1 | 5

Profiles, looked up by structure. Order of values: NPYLR7 agonist, NPYLR7 agonist max-min
CC(C)C(=O)N1CCC1(C)C(=O)Nc1ccc2c(c1)CCC2=O (stereo not given) is listed with 5, 2
CCC12CC3CC(O)(C1)CC(C(=O)NCc1cncn1CC(C)C)(C3)C2 (stereo not given) is listed with -1, 16

Going on with the list.
SMILES | NPYLR7 agonist | NPYLR7 agonist max-min
CC(C)c1nn(CC(=O)N2CCC(Cc3ccccc3)CC2)c(=O)c2c1cnn2C(C)(C)C | 13 | 12
CCn1cc(C(=O)Nc2cccc(C)n2)c2nn(-c3ccccc3)c(=O)c-2c1 | 0 | 0
CC(C)NC(=O)Cc1ccc(N)cc1 | 4 | 4
CC(C)c1ccc(CC(=O)N2CCC2(C)C(=O)NS(=O)(=O)c2cccs2)cc1 (stereo not given) | -5 | -10
Cc1ccc(Cn2nnc3c(=O)n(CC(N)=O)cnc32)cc1 | 5 | 3
CCc1nc2ccc(C(=O)NCCN3CCNC3=O)cn2c1N(C=O)Cc1ccc(OC)cc1 | 22 | 18
CCOC(=O)N1CCC(Nc2c(OCC)c(=O)c2=O)CC1 | 6 | 4
CCC1CN(CCNC(=O)CSc2nnc(C)s2)Cc2cc(OC)ccc2O1 (stereo not given) | 5 | 1
CCOC(=O)c1c(NC(=O)C(C)(C)C)sc(C(C)=O)c1C | 0 | -3
O=C(NCCc1cn(Cc2ccccn2)c2ccccc12)c1c[nH]c(=O)c(Cl)c1 | -5 | -11
COc1cc(-c2nc3ccc(Br)cn3c2NC(C)(C)CC(C)(C)C)ccc1OS(=O)(=O)c1cccc2ccccc12 | 8 | 12
CCc1cccc(CC)c1C(O)c1cccnc1 (stereo not given) | 4 | 7
COc1ccc(/C=C/CN2CCC(CCC(=O)Nc3ccccc3Cl)CC2)cc1 | 9 | 3
CC(C)C(C#N)N1CCN(C(=O)C/C=C/c2cccc(F)c2)CC1 (stereo not given) | 0 | 25
CCOC(=O)c1cnc(-c2ccc(OC)cc2)nc1NCc1c(C)nn(C)c1C | -4 | -2
Cc1nc2ccc(C(=O)NC3CCN(CC#N)CC3)cc2nc1C | -5 | -4
CC(C)CN(Cc1c(-c2ccccc2)noc1N1CCSCC1)C(=O)c1cccs1 | 8 | 9
COc1cc(C(=O)Nc2cc(C(=O)Nc3ccc(Cl)cc3)ccc2N2CC3CC(C2)c2cccc(=O)n2C3)cc(OC)c1OC (stereo not given) | -6 | -1
O=C(Nc1ccc2c(c1)OCO2)N1CCN(C(c2ccccc2)c2ccccc2)CC1 | 28 | 17
CC(=O)Oc1ccccc1Cn1c(C)c(C(=O)NCC2CC2)sc1=O | 7 | 3
O=C(Cn1ccnc1-c1ccccc1)N1C[C@@H]2[C@H](C1)[C@H]1CC[C@@H]2O1 | 0 | 0
CCOCCn1cc(C2CCN(S(=O)(=O)c3ccccc3Cl)CC2)c2ccccc21 | -3 | -11
O=C1CON=C(c2cccc(C(F)(F)F)c2)N1 | 7 | 3
Cc1noc(C)c1S(=O)(=O)N1CCCC1c1ccc2c(c1)OCCCO2 (stereo not given) | 2 | 2
CC(CCn1cccn1)N1CCC(Oc2cc(Cl)ccc2C(=O)N2CCCCC2)CC1 (stereo not given) | 4 | -3
CCOc1ccc(-c2cc3c(=O)n(CC(=O)NCc4ccc(OC)c(OC)c4)ccn3n2)cc1 | 6 | 4
COc1ccnc(NNC(=O)Cc2csc(C(C)C)n2)n1 | 9 | 5
Cc1ccc(S(=O)(=O)N(Cc2cccc(OS(=O)(=O)c3cccc(C(F)(F)F)c3)c2)Cc2ccco2)cc1 | -4 | 4
Cc1c(-c2ccccc2F)[nH]c2ccc(CNS(=O)(=O)N(C)C)cc12 | 5 | 1
CCOC(=O)c1cn[nH]c1S(=O)(=O)N1CCN(Cc2ccccc2)CC1 | -3 | -7

High-throughput results as filed in PubChem.
